From PubChem
Ba CapD inh – inhibitors of Bacillus anthracis CapD enzyme. purified CapD enzyme, fluorescence intensity read-out; stronger effect = lower value; some hits fall short of the stated cut. z-score (concentration not given with the values). 0.23% of 140,000 active. AID 492967;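 active = z-score under -4 in either of two replicates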;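 note: stock transfer was 100 nL into about 40 µL; score is relative to mean and spread of the plate; one replicate is shown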
AID504770 – growth inhibitors of E. coli YBA685 in a screen for V. cholerae RctB (chromosome II replication) inhibitors; E. coli YBA685 rctB-dependent plasmid, OD600 growth, 3 h; stronger effect = lower value; z-score (test concentration not listed); 0.27% of 130,000 active; AID 504770;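 active = z-score under -2 on both plates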;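 note: wells of about 30 µL received 100 nL stock; score is relative to mean and SD of the test wells; the first replicate is given; strong numbers were not always called active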
* marks the source's active call; other numbers are inactive results; · = no result given. Some of the compounds tested; count on the stated rates, not on these rows.

SMILES	Ba CapD inh	AID504770
FC(F)Oc1ccc(C2CC(c3ccco3)=Nc3ccccc3S2)cc1 (configuration not stated)	-0.125	·
Cc1[nH]c2ccc(Cl)cc2c(=O)c1CN1CCCC(C)C1 (configuration not stated)	0.365	-0.65
COc1ccc(C2C(C(=O)O)=C(C)OC2c2ccccc2)cc1 (configuration not stated)	-0.395	2.35
O=C(Cc1csc(Nc2ccc(Cl)cc2)n1)NCc1ccccc1	-0.03	0.3
Cc1c(Sc2ccc(Cl)cc2)cnn1C(=O)Nc1cccc(C(F)(F)F)c1	10.1	0.75
CCOc1ccc(NS(=O)(=O)c2ccc3c(c2)N(C(C)=O)CCO3)cc1	0.005	-0.05
Oc1c(C=NCc2ccccc2)[nH]c2ccccc12	-2.15	-0.4
COc1ccc(/C=C2\SC(=S)N(C(CC(=O)O)C(=O)O)C2=O)cc1 (configuration not stated)	-3.03	·
CCCC(c1nnnn1C(C)(C)C)N(Cc1ccco1)Cc1cc2ccc(C)cc2[nH]c1=O (configuration not stated)	·	-0.05
CCN(CC)S(=O)(=O)c1ccc(C(=O)Nc2ncn(Cc3ccccc3)n2)cc1	0.47	-0.1
O=C(c1ccc([N+](=O)[O-])cc1)N1N=C(c2ccncc2)CC1(O)C(F)(F)F (configuration not stated)	0.16	·
COc1ccc2[nH]c3c(=O)n(/N=C/c4ccccc4)cnc3c2c1	·	-0.35
CCOC(=O)c1cnc(-c2ccccc2)nc1Sc1cc(C)ccc1C	0.585	·
Cc1cc(-c2ccco2)n(CC(=O)NCCCc2ccccc2)n1	-0.36	-0.05
O=C(OCCSc1cnc2ccccc2n1)c1cc(Cl)cc(Cl)c1	0.07	-0.35
Cc1cc(N2CCCC(O)C2)nc(C)n1 (configuration not stated)	·	-1
COc1ccc(C2=NNC(=O)CC2)cc1	-0.32	-0.75
Cc1ccccc1NC(=O)Cn1c(NCC(C)O)nc2ccccc21 (configuration not stated)	0.59	0.05
COc1ccc(CNC(=O)c2c(C)oc3c2cc(OC(C)=O)c2ccccc23)cc1	0.285	0.2
CCC1(C)Cc2ccccc2-c2c1c(=O)n(Cc1ccccc1)c1nnnn21 (configuration not stated)	2.88	1.25
Cc1cc(Nc2ccccc2O)c2ccccc2n1	·	-0.4
O=C1N=c2ccccc2=C/C1=C/c1sc(=S)n(Cc2ccccc2)c1O	0.06	-0.35
Cc1ccc(SCC(C)CNC(=O)Nc2ccccc2)cc1 (configuration not stated)	-0.355	-1.15
CCNC(=O)N(CC1CCCO1)C(C)c1ccc(S(C)(=O)=O)cc1 (configuration not stated)	-0.28	·
CCCNC(=O)N(C)Cc1ccccc1	-0.11	-0.9
CC(C)C(=O)Nc1c(C(=O)N2CCCCCC2)oc2ccccc12	0.995	-0.9
COc1ccc2nc(SCC(=O)Nc3ccc(-c4nc5ccccc5o4)cc3)[nH]c2c1	13.9	·
CC(=O)N1CCN=C1SCc1ccc(C(F)(F)F)cc1	·	-0.3
O=C1C2ON(c3ccccc3)C(c3ccc(F)cc3)C2C(=O)N1Cc1ccccc1 (configuration not stated)	-0.24	·
COC(=O)c1cc2sccc2n1CC(=O)Nc1ccc(OC)c(OC)c1OC	-0.455	-0.9
Brc1ccc(-c2csnn2)cc1	-0.085	0.8
CCC1CCCCN1C(=O)CSc1ncc(-c2ccc(F)cc2)n1CC (configuration not stated)	·	0.45
COc1cc(/C=N/NC(=O)c2cc(C3CC3)nc3ccccc23)cc(OC)c1	6.37	·
c1ccc(-c2nc(-c3ccc4c(c3)OCO4)cs2)cc1	·	0.55
O=C(O)CC(C(=O)O)N1C(=O)/C(=C\c2ccco2)SC1=S (configuration not stated)	·	-0.45
O=C(O)COc1ccc(/C=C2\C(=O)NC(=S)N(c3ccccc3)C2=O)cc1Cl	-1.43	·
CC(C)(C)c1ccc(N=Cc2ccccn2)cc1	-0.135	-0.35
O=C1OC(/C=C/c2ccc(Cl)cc2)=NC/1=C/c1ccco1	-0.485	-1.25
N#Cc1ccsc1NC(=O)c1coc2ccccc2c1=O	-0.06	-0.25
CCN1CCc2c(sc3nc(SCC(=O)C(C)(C)C)n(Cc4ccc(C(=O)O)cc4)c(=O)c23)C1	9.05	·
CCSc1nnc(SCC(=O)c2ccc3[nH]c(=O)[nH]c3c2)s1	·	1.6
COc1ccc(C2N=C(N3CCc4ccccc43)SC(N)=C2C#N)cc1 (configuration not stated)	0.53	0
CN1CCC(OC(=O)C2c3ccccc3Oc3ccccc32)CC1	0.235	0.65
CS(=O)(=O)c1ccc(COc2ccccc2C(=O)Nc2ccccn2)cc1	1.55	·
CCN1C(=O)/C(=c2\sc3n(c2=O)C(c2ccccc2)C(C(=O)OC)=C(C)N=3)c2ccccc21 (configuration not stated)	0.06	·
Nc1nc(CSc2nc(-c3ccccc3)c(-c3ccccc3)o2)nc(N2CCOCC2)n1	2.39	·
COc1ccc(-c2cc(C(=O)Nc3sc(C)c(C)c3C(N)=O)c3ccccc3n2)cc1	2.28	·
CC1(C)CC(=O)C=C(NNC(=O)C23CC4CC(CC(C4)C2)C3)C1	·	0.65
CC(C)CCNC(=O)c1ccc2c(=O)n(Cc3ccc(Cl)cc3)c(=S)[nH]c2c1	-0.325	0.35
CCOC(=O)C1(C(=O)OCC)CCC(=NO)CC1	-0.6	0.05
CCN1CCSc2ccc(C(=O)NCc3ccccc3)cc21	80.2	1
NCCNC(=S)Nc1ccccc1	·	-0.35
CC(C)(C)OC(=O)C[n+]1ccc(C(N)=O)cc1	1.36	-0.15
CCC1C(=O)N=C(SCC(=O)Nc2ccccc2)NC1=O (configuration not stated)	-1.17	·
N#C/C(=N/O)S(=O)(=O)c1ccccn1	0.01	·
COC(=O)C(Cc1ccc(Cl)cc1)NC(=O)OCCc1ccccc1Cl (configuration not stated)	-0.32	·
NCCc1ccncc1	0.44	-0.4
CC(=NCCc1cnc[nH]1)c1c(C)[nH]n(-c2ccc(F)cc2)c1=O	·	-0.25
FC(F)(F)c1cccc(C2NCCc3[nH]cnc32)c1 (configuration not stated)	-0.24	0.15
CCNC(=S)N/N=C1\CCCCC1C (configuration not stated)	·	0.6
(more compounds)
SMILES	Ba CapD inh	AID504770
Cc1c(CC(Cl)(Cl)Cl)c2c(n1Cc1ccccc1)CC(C)(C)CC2=O	-0.035	·
O=C(CS(=O)(=O)c1ccc(C(F)(F)F)cn1)N/N=C/c1cc([N+](=O)[O-])ccc1Cl	-0.395	·
CN1C(=S)N(C2CC2)C(=O)/C1=C\c1ccc(OC(F)F)cc1	·	-0.15
CC1CCN(c2nc(-c3ccccc3)cs2)CC1	-0.125	-0.65
CCN(C(C)=O)c1nc2c3ccccc3n(C(C)=O)c2s1	0.235	-0.05
N#Cc1c(-c2ccc(F)cc2)cc(C2CC2)nc1SCCN1C(=O)c2ccccc2C1=O	0.295	·
O=c1ccn(-c2ccccc2)nc1-c1ccn(C2CCS(=O)(=O)C2)n1 (configuration not stated)	-0.985	·
O=C(c1c(Cl)nc2sccn12)N1CCOCC1	0.58	0.25
COc1ccc(C(=O)Nc2ccc(N3CCN(c4ncccc4C(F)(F)F)CC3)nc2)cc1	0.505	1.5
Cc1noc2ncnc(N3CCC(C(=O)N4CCc5ccccc54)CC3)c12	0.55	0.05
O=c1cc(Nc2ccc3c(c2)OCO3)[nH]c(=O)n1Cc1ccc(F)cc1	0.095	-0.1
S=C(NCC1CCCO1)N1CCN(Cc2ccccc2Cl)CC1 (configuration not stated)	0.42	-0.35
CCOC(=O)c1c(NC(=O)COC(=O)Cn2cnc3ccccc32)sc(C)c1C	·	-0.25
COC(=O)c1ccc2c(c1)CN(c1ccc(Br)cc1)C2	5.14	-0.15
Oc1ccccc1N1CCN(c2nc(-c3cccs3)nc3ccccc23)CC1	·	0.05
CC1(C)CN=C(NCc2ccccc2Cl)S1	-0.405	-0.95
COC(=O)C1=NNC2(C)C(=O)N(c3ccccc3C)C(=O)C12 (configuration not stated)	-0.02	·
COC(=O)C1=C(C)NC(C)=C(C(=O)OC)C1c1cn(-c2ccccc2)nc1-c1ccc(OC)c(OC)c1	4.99	·
Cc1ccc(C(=O)Nc2nccs2)c(C)c1	·	-3.1
Cc1cc(C)nc(SCC(=O)c2ccccc2)n1	-0.03	1.25
O=C(CC1SC(=O)N(Cc2ccc(Cl)cc2)C1=O)Nc1nccs1 (configuration not stated)	-0.315	-1
O=C(COc1ccccc1)NCC(=O)Nc1nc(CC23CC4CC(CC(C4)C2)C3)cs1	-0.245	0.2
Cc1cc(NC(=S)NC(C)(C)C)ccc1Br	-1.14	1.05
Cc1ccc(C)c(Cn2c3ccccc3c3cnn(CC(=O)NCCCN4CCOCC4)c(=O)c32)c1	3	0.2
CCOC(=O)C1CCCN(C(=O)c2sc3ncn(CC(=O)Nc4cccc(C(F)(F)F)c4)c(=O)c3c2C)C1 (configuration not stated)	-0.74	·
COC(=O)c1c(C)c(C)c(C(=O)OC)c(C)c1C	-0.35	-0.65
CCOC(=O)C1=C(C)N=c2s/c(=C\c3cc(Br)c(O)c(OC)c3)c(=O)n2C1c1cccs1 (configuration not stated)	0.48	·
N#CCC(=O)N1CCSCC1	0.37	·
Clc1ccc(Cl)c(Nc2nc3cc(Cl)ccc3o2)c1	·	1.6
COCc1cc(=O)[nH]c(SC)n1	0.705	·
CC1=C(C(=O)N(CC(=O)NCc2ccco2)c2ccc(Cl)cc2)SCCO1	-1.66	-0.1
O=C(Cn1ncc2c3ccccc3n(Cc3ccccc3F)c2c1=O)N1CCC2(CC1)OCCO2	1.67	1.2
CCc1c(C)nc2cc(-c3ccccc3)[nH]n2c1=O	·	0.55
CCOC(=O)c1c(C)nc2ccccc2c1C(=O)O	-0.555	1
CCc1cccc2c(=O)c(C(=O)N3CCCCC3)c[nH]c12	·	-0.35
C/C(CC12CC3CC(CC(C3)C1)C2)=N/O	-0.305	1.85
COc1cc(CCC(=O)NCc2ccccc2)cc(OC)c1OC	-0.955	-0.4
CCCc1cc(=O)n2[nH]c(C(=O)N3CCC(C)CC3)nc2n1	·	0.2
CC1(C)Cc2c(sc3nc(-c4ccccc4)[nH]c(=O)c23)CO1	6.3	-0.7
O=C(O)C1CCCN1S(=O)(=O)c1ccc(Cl)cc1 (configuration not stated)	0.52	-0.55
N#CCSc1nsc(SCC#N)c1C#N	0.29	-0.45
N/C(=N\OC(=O)C1CCCS1)c1ccc(C(F)(F)F)cc1 (configuration not stated)	1.18	-0.4
CC(=O)Nc1nc(C(=O)O)cs1	·	-0.5
O=C(Nc1ccc(Oc2ccccc2)cc1)C1c2ccccc2Oc2ccccc21	-0.61	1.4
COc1cc2c(cc1OC)CN(C1CC(=O)N(CCc3ccccc3)C1=O)CC2 (configuration not stated)	·	1.25
S=C(NCCc1ccccc1)N/N=C/c1ccc2c(c1)OCO2	0.305	·
c1ccc2c(c1)COC(CCN1CCN(CCC3OCc4ccccc4CO3)CC1)OC2	·	-0.35
CCOC(=O)C1CCN(c2ncnc3cc(OC)c(OC)cc23)CC1	-0.975	1.35
Cn1cccc1/C=C/C(=O)OCc1ccccc1C#N	·	-0.1
CCN(CC)C(=O)c1nn(C)c2c1CSc1ccccc1-2	0.565	-1
O=C1CCCc2cc(S(=O)(=O)Nc3ccccc3)ccc2N1	0.995	-0.4
CCCn1ccc2c(OCc3ccccn3)cccc2c1=O	·	-0.05
CNc1[nH]c(=S)nc2sc3c(c12)CCCC3	0.485	-0.1
COc1ccc(OCC(O)Cn2c(N3CCN(C)CC3)nc3c2c(=O)n(C)c(=O)n3C)cc1 (configuration not stated)	-0.325	·
C[C@H]1O[C@@H](OC2CC[C@]3(C=O)[C@H]4CC[C@]5(C)[C@@H](C6=CC(=O)OC6)CC[C@@]5(O)[C@@H]4CC[C@]3(O)C2)C[C@H](O)[C@@H]1O (some centres not stated)	1.68	·
CCCCN(C(=O)c1nn(C)c2c1CSc1ccccc1-2)C1CCN(C(C)=O)CC1	0.005	-2.35
CCCCNS(=O)(=O)c1cc2c(c([N+](=O)[O-])c1)-c1c(cc(S(=O)(=O)NCCCC)cc1[N+](=O)[O-])C2=O	-0.24	·
COc1ccc(C)cc1S(=O)(=O)NCC1CCCO1 (configuration not stated)	0.855	·
CS(=O)(=O)c1nc2ccccc2n1Cc1cccc2ccccc12	·	-0.15
CC(C)Oc1cccc(OCCn2cnc3ccccc32)c1	-0.455	1.3
